From PubChem BioAssay
TRPML1 inh: blocks the human TRPML1 channel; TRPML1-inducible cells, Ca2+ dye fluorescence, FDSS; stronger effect = lower value; inhibition of EC80 agonist-evoked calcium signal; Q9GZU1; AID 624415; actives 0.02% (n = 390,000); activity change, negative = inhibition, % (test concentration not listed); in the data active means activity change below about -50%; inconclusive means about -30% to -50%; inactive means above about -30%;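 also: stimulus is agonist 54-4 at its EC80 concentration; % is scaled to controls: 0 for no effect and ±100 for the full control effect; compound concentration not given in the record; the text of the record puts the active cut at -80%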
Target sequence (Q9GZU1 whole entry, looked up): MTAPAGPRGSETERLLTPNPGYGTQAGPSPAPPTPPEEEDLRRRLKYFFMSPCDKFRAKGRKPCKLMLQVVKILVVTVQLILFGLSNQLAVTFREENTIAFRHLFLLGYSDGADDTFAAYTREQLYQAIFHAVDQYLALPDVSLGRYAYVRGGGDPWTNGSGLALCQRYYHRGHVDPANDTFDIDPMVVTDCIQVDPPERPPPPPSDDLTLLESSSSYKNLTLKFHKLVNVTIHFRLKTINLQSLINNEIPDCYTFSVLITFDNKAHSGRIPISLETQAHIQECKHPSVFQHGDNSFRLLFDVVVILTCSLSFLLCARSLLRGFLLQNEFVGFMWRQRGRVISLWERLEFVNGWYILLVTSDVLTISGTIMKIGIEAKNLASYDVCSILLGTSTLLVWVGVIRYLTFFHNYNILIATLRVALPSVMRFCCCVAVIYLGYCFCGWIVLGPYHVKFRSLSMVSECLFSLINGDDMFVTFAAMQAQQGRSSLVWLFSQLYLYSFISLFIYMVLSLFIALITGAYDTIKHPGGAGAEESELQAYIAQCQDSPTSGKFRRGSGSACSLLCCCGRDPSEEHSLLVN
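Calcium fluorescence in TRPML1-DL cells induced overnight with Tet: a 110 s read after compound pin addition, then a 110 s antagonist read after challenge with 54-4 at 4 uM final (EC80).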
Six1-Eya2 inh: blocks human Six1 binding to Eya2. AlphaScreen GST-Six1/His-Eya2 binding, biochemical; stronger effect = lower value; control for the full effect not named in the record. Q15475+O00167. actives 0.56% (n = 360,000). AID 651725. activity change, % (no concentration beside the values); in the data active = activity change below about -65%; inconclusive = about -30% to -65%; inactive = above about -30%; also: % is scaled to controls: 0 for no effect and ±100 for the full control effect; compound concentration not given in the record
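AlphaScreen luminescence read after one hour at 37 °C in darkness. Pin-transferred compounds met GST-Six1 and His-Eya2 protein (5X stock 250 nM/500 nM) plus glutathione donor and Ni-chelate acceptor beads (5X, 50 ug/mL).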
D2 ag: human D2 receptor agonism in beta-arrestin assay. activation, % (concentration not given with the values). DiscoveRx PathHunter D2 beta-arrestin, luminescence, 90 min; 100% = 57 uM dopamine signal. P14416. actives 0.084% (n = 360,000); in the data active = activation above about 40%; inconclusive = about 15% to 40%; inactive = below about 15%; also: compound concentration not given in the record; the text of the record calls up to 30% inactive
Target sequence (P14416 whole entry, looked up): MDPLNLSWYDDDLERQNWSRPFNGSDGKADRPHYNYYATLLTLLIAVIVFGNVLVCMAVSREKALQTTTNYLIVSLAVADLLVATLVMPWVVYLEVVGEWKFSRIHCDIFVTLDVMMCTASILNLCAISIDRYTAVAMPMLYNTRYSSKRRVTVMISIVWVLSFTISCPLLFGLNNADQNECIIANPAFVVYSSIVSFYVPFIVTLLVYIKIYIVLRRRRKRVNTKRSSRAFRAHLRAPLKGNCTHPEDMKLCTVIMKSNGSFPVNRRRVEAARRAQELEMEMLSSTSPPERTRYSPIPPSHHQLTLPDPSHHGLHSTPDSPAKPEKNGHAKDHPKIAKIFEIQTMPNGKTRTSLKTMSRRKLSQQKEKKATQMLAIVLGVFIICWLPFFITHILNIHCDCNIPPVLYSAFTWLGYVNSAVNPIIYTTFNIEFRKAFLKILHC
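DiscoveRx PathHunter D2 beta-arrestin cells (2,100/well) attached overnight, then compound-stimulated 90 min at 37 C in HBSS/10 mM HEPES/0.1% Tween-20 buffer; beta-galactosidase complementation read by luminescence after 1 h at ambient temperature. Dopamine 57 uM final (EC100) as control.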
PINK1 expr mod: PINK1 expression modulation. PINK1 immunofluorescence, high-content cytometry, 24 h. AID 624263. Potency, µM (series often up to 76.6 µM), without a hit: top-dose activation (PINK1 increase), actives largely listed as activators. actives 0.2% (n = 410,000); active = well fitted activation curve with a large enough effect; inconclusive = small, poorly fitted or top-dose-only effect; inactive = flat fitted curve, though single readings scatter; cell line not stated here;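 also: potency is read from the fitted curve at half-maximal effect; % of control where 0% means no effect; nearly all actives have a fitted effect of over 65% in size; a mitochondrial uncoupler was the plate control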
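Measures PINK1 amount and localization on or inside mitochondria by immunofluorescence. Stable cells get compounds at 5 concentrations for 24 hours before fixation and staining; CCCP controls included.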
TRPML1 agonist: agonists of human TRPML1 channel; Q9GZU1; TRPML1-expressing cells, Ca2+ dye fluorescence, FDSS; host cell line not named in the record; reference of the full effect not given here; activation, % (concentration not given with the values); actives 0.12% (n = 410,000); AID 624414; in the data active = activation above about 50%; inconclusive = about 30% to 50%; inactive = below about 30%; also: 0% is about no effect; the text of the record puts the active cut at 80%
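Agonist activity was taken from a 110 s kinetic Ca2+ dye read on the FDSS after pinning compounds onto TRPML1-DL cells. The cells were seeded at 1,500/well with Tet inducer, incubated about 16 h, then dye-loaded at room temperature.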
CtBP-E1A inh: blocks the CtBP interaction with E1A | AlphaScreen GST-E1A/His-CtBP binding, 1536-well; stronger effect = lower value; control for the full effect not named in the record | activity change, % (test concentration not listed) | actives 0.49% (n = 340,000); in the data active means activity change below about -65%; inconclusive means about -30% to -65%; inactive means above about -30%; also: % is scaled to controls: 0 for no effect and ±100 for the full control effect; compound concentration not given in the record
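Steps: dispense buffer (Tris pH 8.0, NaCl 300 mM, TCEP 1 mM, BSA, Tween 20); add 5X protein mix (GST-E1A, His-CtBP, 125 nM each); pin 23 nL compound; 2 h at 37 °C, dark; add 5X beads (50 ug/mL); 1 h; read.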
Numbers without * were called inactive; u = inconclusive; x = not tested or not shown; [ ] = dose if it differs, or a comment. Hits appear at their usual frequency; any-hit rate near 1%.

SMILES | TRPML1 inh | Six1-Eya2 inh | D2 ag | PINK1 expr mod | TRPML1 agonist | CtBP-E1A inh
Cc1ccc(C(=O)OCC(=O)Nc2nc(-c3ccccc3)cs2)cc1NC(=O)c1ccco1 | 8.7 | 6.0 | 5.7 | 2.1% | -0.3 | -26.3
CCn1cnc2cc(NC(=O)c3ccc(C)cc3)ccc21 | 19.3 | -4.8 | 3.0 | -2.8% | 1.9 | 9.6
CC1CC(C)CN(S(=O)(=O)c2ccc(NC(=O)CCNC(=O)c3ccc([N+](=O)[O-])cc3)cc2)C1 (stereo not given) | -1.6 | -0.8 | 1.1 | 9.1% | -0.7 | 10.1
COc1ccc(C2CC(=O)c3cnc(Nc4cc(C)cc(C)c4)nc3C2)cc1 (stereo not given) | 47.8 | -2.2 | -2.2 | 2.1%[38.3 µM] | 1.9 | 1.2
O=[N+]([O-])c1ccc(Sc2nnnn2-c2ccccc2)nc1 | 9.5 | 86.4 | 9.2 | -3.8% | -0.7 | -5.7
CC12CN3CC(C)(CN(C1)C3c1ccc(Cl)cc1)C2 (stereo not given) | 17.1 | 3.4 | -1.7 | 2.0% | -0.5 | 4.7
Cc1scc(C(=O)NNC(=S)NCC(C)C)c1C | -13.4 | 2.7 | -6.8 | -0.5% | 1.4 | 1.1
CC(C)C(=O)N1CCN(c2c(Cl)cccc2[N+](=O)[O-])CC1 | 3.6 | -1.7 | -3.2 | -0.4% | -0.2 | -14.1
N#CCOC(=O)c1cc(S(=O)(=O)N2CCCCC2)ccc1N1CCOCC1 | 3.6 | 0.0 | -0.5 | 0.7% | -0.2 | 0.2
Cc1ccnc(NC(=O)COC(=O)C23CC4CC(CC(C4)C2)C3)n1 | x | -1.2 | -1.0 | 3.0% | x | 3.5
Cc1ccc(SCC(=O)NC(=O)NCCC(C)C)c(C)c1 | 54.5 | 1.0 | 0.0 | 4.6% | 0.9 | -1.9
CCN(CC)CCNC(=O)CN1N=C(c2ccc(OC)cc2)CCC1=O | -7.9 | x | x | 0.2% | 1.7 | x
Cc1ccc(NC(=O)c2cc3c(=O)n(Cc4cccnc4)ccc3nc2C)cc1F | 19.6 | x | x | 0.5% | 0.6 | x
Cc1cc2nc(C)c(Cc3ccccc3)c(=O)n2[nH]1 | 17.1 | -9.8 | 5.4 | 1.7% | -0.8 | 1.3
Cc1nc(SCC(=O)c2ccc(F)cc2)c([N+](=O)[O-])[nH]1 | 28.5 | -9.1 | -6.1 | 3.3% | -0.1 | -1.7
Cc1cccc(NC(=O)CCNS(=O)(=O)c2cccc3nsnc23)c1 | -4.2 | -9.9 | -5.6 | -0.4% | 1.3 | -7.3
N#Cc1nc(-c2ccc(Cl)cc2)oc1NCCc1ccccn1 | 10.5 | -8.7 | -4.9 | 0.9% | -1.1 | -2.1
CSc1nsc(NC(=O)Cc2ccccc2)n1 | 41.9 | 4.5 | 0.5 | 1.2%[38.3 µM] | -0.2 | 5.0
Fc1ccccc1Nc1ncnc2c1nc1n2CCCCC1 | -0.9 | x | x | 1.3% | -1.4 | x
NC(c1ccc(F)c(F)c1)c1nc(-c2cncnc2)cs1 (stereo not given) | x | -4.1 | 5.9 | 1.9% | -0.5 | 2.1
CCOc1ccccc1NC(=O)CCNC(=O)Cn1ccc2ccccc2c1=O | 25.6 | -3.7 | -3.1 | 1.6% | 0.0 | 5.3
COc1ccc(-c2nc(CN3CCC(C(=O)NCCN(CC(C)C)CC(C)C)CC3)c(C)o2)cc1OC | -12.7 | x | x | -0.5% | 1.1 | x
CC1(c2nnc(Cc3ccccc3)o2)CC(c2c(Cl)cccc2Cl)=NO1 (stereo not given) | 17.2 | -4.9 | 1.4 | -0.2% | 0.9 | x
Cc1[nH]c2ccccc2c1C(=O)C(C)Sc1nnc(C2CC2)o1 (stereo not given) | 9.3 | -5.0 | 0.2 | -0.5% | 4.4 | 1.3
c1ccc(N2CCN(c3cnc4ccccc4n3)CC2)cc1 | 0.8 | 22.7 | -7.2 | 2.7% | -0.6 | 20.0

Following part
SMILES | TRPML1 inh | Six1-Eya2 inh | D2 ag | PINK1 expr mod | TRPML1 agonist | CtBP-E1A inh
Cc1ccccc1OCCn1c(CCNC(=O)C(C)C)nc2ccccc21 | -7.7 | 0.0 | -2.5 | -0.2% | -0.3 | 1.7
C=CCNC(=O)c1onc(CSc2cc(C)ccc2C)c1C(=O)O | -5.5 | -0.7 | -0.2 | 0.1% | -0.7 | 2.7
CC(C)(C)c1ccc(-c2nnc(N)s2)cc1 | 21.5 | 4.7 | 2.4 | -0.2% | 5.4 | -2.2
COC(=O)CSC1=C(C#N)C(c2ccccc2F)CC(=O)N1 (stereo not given) | -2.4 | -2.3 | -1.1 | 7.3% | -1.0 | 0.0
COc1ccc(O)c(C2NC(CC(C)C)(C(=O)O)C3C(=O)N(Cc4ccccc4)C(=O)C23)c1 (stereo not given) | 5.7 | 7.9 | -1.7 | -3.7% | 0.0 | -9.1
O=S(=O)(c1cccc(-c2nnc3n2CCCCC3)c1)N1CCCC1 | 6.0 | 5.7 | -6.2 | 2.7% | -1.5 | -4.1
C=CCN1C(=O)C(CC(=O)NCC)SC1=Nc1ccc(S(N)(=O)=O)cc1 (stereo not given) | -2.4 | 6.0 | 0.4 | 7.2%[38.3 µM] | 0.4 | 9.0
COc1cc2c(cc1OC)C(C)N(CC(=O)Nc1ccc(C)c(S(=O)(=O)N3CCOCC3)c1)CC2 (stereo not given) | -3.1 | -10.3 | 7.2 | -0.7% | 3.1 | x
O=C(NCc1ccc(Cl)cc1)C1CCCO1 (stereo not given) | -1.9 | 5.8 | 1.9 | -0.9% | -0.1 | 5.6
COc1ccc(-c2nc(-c3cccs3)no2)cc1 | -8.6 | 2.9 | 1.4 | 2.2% | 0.0 | 20.3
Cc1ccc(Cl)cc1NC(=O)CN1C(=O)NC2(CCCCCC2)C1=O | -7.2 | -1.3 | -2.2 | 3.7% | 0.3 | -3.9
CCN(CC)C(=O)CSc1nc2ccccc2c(=O)n1-c1cccc(OC)c1 | -4.7 | -0.5 | 1.9 | 7.0% | -0.4 | -0.3
CC(Sc1nc2ccccc2c(=O)n1C)C(=O)N(C)C1CCCCC1 (stereo not given) | -0.8 | 7.2 | -1.0 | -1.0% | 0.4 | -4.1
Cc1ccc(S(=O)(=O)N2CCC(C(=O)OCCOc3cccc(C)c3)CC2)cc1 | 1.8 | 10.7 | 1.2 | 2.4% | 0.7 | 27.1
Cc1ccc(NC(=O)CCCN2C(=O)COc3ccc(C)cc32)c(C)c1 | -6.9 | x | x | 0.3% | 0.0 | x
CC(NC(=O)[C@@H](NC(=O)[C@@H]1Cc2ccccc2CN1)C(C)C)c1ccccc1 (stereo not given in full) | 0.0 | 10.3 | -4.6 | -0.1% | 1.3 | 0.5
Brc1cccc(CN2CCCCCC2)c1 | -2.5 | 1.0 | -3.1 | 2.3% | -0.1 | 9.6
COc1ccccc1-c1cc2nc(NCCc3ccc(S(N)(=O)=O)cc3)ccn2n1 | 84.1 | -12.8 | 8.0 | 0.1% | 2.6 | -3.4
O=C1[C@H](Cc2ccccc2)NCC=CC[C@H](c2ccc(Cl)cc2)N1Cc1ccc(Cl)cc1 | -10.1 | -0.3 | -3.0 | -0.1% | 0.1 | x
COc1ccc(-c2noc(CSc3nc(-c4ccccc4)cc(=O)[nH]3)n2)cc1 | 16.9 | -0.7 | 2.8 | -2.3%[38.3 µM] | 0.9 | 4.7
COC(C[C@@H]1O[C@@H]1C(=O)[C@@H](C)OCc1ccccc1)OC | -2.7 | 1.6 | -2.7 | -0.2% | 0.6 | 4.2
CCOP(=O)(OCC)C(Nc1ccccc1)c1cc(OC)ccc1OC (stereo not given) | -1.3 | 4.2 | -4.9 | 1.6% | 0.3 | 1.5
Cc1ccc(N2C(=O)CCSC23C(=O)Nc2ccccc23)cc1 (stereo not given) | 13.2 | 2.0 | -3.0 | 3.5%[38.3 µM] | -0.3 | 2.1
Cc1cc(=O)[nH]c(Nc2ccc(N(C)C)cc2)n1 | 11.0 | -11.0 | u | -0.8% | -0.4 | x
Cc1ccc2c(=O)cc(C(=O)Nc3nc4ccc(Cl)cc4s3)oc2c1C | 0.8 | x | x | 3.6% | 0.1 | x

Compound profiles, as listed above. Order of screens: TRPML1 inh, Six1-Eya2 inh, D2 ag, PINK1 expr mod, TRPML1 agonist, CtBP-E1A inh
Cc1ccc2c(=O)cc(C(=O)Nc3nc4ccc(Cl)cc4s3)oc2c1C in the list: 0.8, x, x, 3.6%, 0.1, x
N#CCOC(=O)c1cc(S(=O)(=O)N2CCCCC2)ccc1N1CCOCC1 in the list: 3.6, 0.0, -0.5, 0.7%, -0.2, 0.2
C=CCN1C(=O)C(CC(=O)NCC)SC1=Nc1ccc(S(N)(=O)=O)cc1 (stereo not given) in the list: -2.4, 6.0, 0.4, 7.2%[38.3 µM], 0.4, 9.0
Cc1nc(SCC(=O)c2ccc(F)cc2)c([N+](=O)[O-])[nH]1 in the list: 28.5, -9.1, -6.1, 3.3%, -0.1, -1.7

The list goes on:
SMILES | TRPML1 inh | Six1-Eya2 inh | D2 ag | PINK1 expr mod | TRPML1 agonist | CtBP-E1A inh
CCCC12CN3CC(C)(CN(C1)C3c1ccc(CC)cc1)C2=O (stereo not given) | -1.6 | x | x | 0.6% | -0.2 | x
COc1ccc(CCNc2nc(-c3ccccc3OC)cc(C(F)(F)F)n2)cc1OC | 30.1 | x | x | 2.6% | 3.5 | x
CCOC(=O)COc1cc([N+](=O)[O-])cc2cccnc12 | -2.7 | -0.8 | 0.1 | 1.5% | 0.5 | -4.4
O=C(CC1C(=O)N(Cc2ccccc2)C(=S)N1CCN1CCOCC1)Nc1ccc(F)cc1 (stereo not given) | 33.0 | -1.3 | -4.2 | 1.2% | 2.3 | 3.2
N#Cc1ccc(COC(=O)c2cccnc2Cl)cc1 | -1.2 | -1.1 | 2.9 | 0.4% | -0.6 | -6.6
CCOC(=O)c1c(NC(=O)CN2CCOCC2)sc(C(=O)NC)c1C | -4.5 | 22.1 | -3.4 | 0.4% | 0.0 | 0.0
CCOC(=O)c1cccc(NC(=O)CSc2nc3ccccc3c(=O)n2CC)c1 | 10.9 | -1.5 | 2.0 | u | 1.6 | 1.8
COc1ccccc1N1N=C(c2ccc([N+](=O)[O-])cc2)CC1c1ccccc1 (stereo not given) | -16.5 | u | -4.0 | 9.9% | 69.3* | u
Cc1cc(/C=N/Nc2nc(N3CCOCC3)nc(N3CCOCC3)n2)c(C)n1-c1ccccc1 | -4.1 | -2.2 | -17.1 | 2.9% | -0.7 | 20.6
CCC(=O)Nc1ccc2oc(-c3ccccc3Br)nc2c1 | 10.6 | -11.7 | -4.0 | 5.5% | -0.7 | -16.2
COc1cc(/C=C/C(=O)OCC(=O)N2CCN(C(=O)c3ccco3)CC2)ccc1O | -9.7 | 0.5 | -4.0 | 7.3% | 0.7 | -1.1
COc1ccc(/C=C/C(=O)Nc2cccc(S(=O)(=O)NC3=NCCCCC3)c2)cc1 | -0.9 | u | -4.3 | 0.7% | -0.4 | -19.5
CC(=O)Nc1ccc(CN2CCN(Cc3ccc(F)c(F)c3)C(CCO)C2)cc1 (stereo not given) | 0.4 | 3.8 | -2.3 | 0.8% | 0.3 | 6.3
